CBX7 inh: CBX7 chromodomain binding inhibitors, primary screen, biochemical, AlphaScreen | Chromobox protein homolog 7 (Homo sapiens), O95931 | normalised signal (fraction of DMSO) (test concentration not listed) | AlphaScreen His6-CBX7 / biotin-H3K27me3 peptide binding; hits give low values | 66,000 compounds, 1.1% hits | AID 1224903, 2016; in the data active = normalised signal below about 0.5;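 note: 100 nL library stock added to about 20 µL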
Target sequence (O95931 whole entry, looked up): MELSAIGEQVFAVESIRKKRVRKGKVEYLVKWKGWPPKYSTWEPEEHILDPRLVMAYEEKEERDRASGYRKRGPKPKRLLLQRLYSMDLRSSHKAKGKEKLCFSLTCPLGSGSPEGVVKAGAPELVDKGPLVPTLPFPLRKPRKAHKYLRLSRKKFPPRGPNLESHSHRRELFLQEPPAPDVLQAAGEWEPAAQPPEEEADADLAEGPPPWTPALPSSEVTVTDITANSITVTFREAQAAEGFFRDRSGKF
CBX7 inh z-score: further read-out of CBX7 inh, marked with its call; z-score; measured here: z-score of CBX7 signal; some inactives read as strong as hits; reference of the scale not given here;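 same signal on another scale; lower means less binding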
The depositor's hits bear a star.

SMILES	CBX7 inh	CBX7 inh z-score
CCCOC(=O)c1ccc(NC(=O)c2c(-c3ccccc3Cl)noc2C)cc1	1.07	0.442
O=C(Nc1ccc2oc(-c3ccncc3)nc2c1)c1ccc(-c2ccc(Cl)cc2)o1	0.966	-0.045
COc1ccc(OC)c(NC(=O)c2c(NCc3cccc(OC)c3OC)sc3c2CCCCC3)c1	0.775	-3.15
COCCCNC(=O)CCc1c(C)nc2c(c(C)nn2-c2ccc(C)cc2)c1C	1.13	0.972
CCOc1ccc(NS(=O)(=O)c2ccc3[nH]cc(C(=O)NCCCOC(C)C)c(=O)c3c2)cc1	0.941	-0.785
Cc1ccc(NC(=O)[C@H](CCS(C)(=O)=O)N2Cc3ccccc3C2=O)cc1F	1.01	0.0836
O=C(CC1Oc2ccccc2NC1=O)NCCCN1CCCC1 (centres undefined)	1.17	1.01
O=C(CCNS(=O)(=O)c1ccc2c(c1)CCC(=O)N2)Nc1nc2ccc(Cl)cc2s1	1.1	2
COc1ccc2oc(=O)c(-c3csc(-c4ccccc4)n3)cc2c1	1.04	0.777
CCc1ccc(OCc2nc(-c3ccc(C)cc3)no2)cc1	1.56	0.634
Cc1ccc(NC(=O)c2cnn(-c3ccc(F)cc3)c2C2CCN(C(=O)OC(C)(C)C)CC2)c(C)c1	0.962	-1.5
CN(CC(=O)Nc1ccc(F)cc1)S(=O)(=O)c1cccc2cccnc12	1.03	0.579
COc1ccc(CNC(=O)c2cc(=O)[nH]c3ccccc23)c(OC)c1	1.03	1.4
Cc1cc(C)c(-c2csc(NC(=O)c3cccc(Oc4ccccc4)c3)n2)c(C)c1	1.1	2.22
COc1cccc(C(=O)Nc2nc3ccc(S(C)(=O)=O)cc3s2)c1	1.09	2.02
O=C(CCCOc1ccc(Cl)cc1)NCCc1nc2ccccc2[nH]1	1.02	0.946
COc1ccc(C2C(=O)N(C3CCCCCC3)CC(=O)N2CCc2ccccc2)cc1OC (centres undefined)	0.977	-1.01
Cc1c(C(=O)NCc2ccc(F)cc2)sc2ncn(CC(=O)N3CC(C)CC(C)C3)c(=O)c12 (centres undefined)	1.02	0.665
COc1cc(OC)cc(-c2nnc(SCC(=O)N3CCOCC3)o2)c1	1.04	1.81
O=C(NCCc1ccccc1)c1ccc(NC2=NC3CS(=O)(=O)CC3S2)cc1 (centres undefined)	0.606	-3
O=C(NCCCN1CCC(Cc2ccccc2)CC1)c1ccc2c(c1)NC(=O)c1ccccc1S2	0.883	-3.27
CCSc1nnc(NC(=O)c2c(-c3ccccc3Cl)noc2C)s1	1	0.0838
O=C(Nc1ccc(-c2nc3ncccc3o2)cc1)c1ccc(-c2ccccc2)cc1	1.02	0.577
Cc1ccc(-c2nc(Nc3ccccc3Cl)c3ccccc3n2)cc1	1.02	0.309
Cc1cc(C(F)(F)F)nc(NCc2ccc(F)cc2)n1	1.45	3.71
Next results.
SMILES	CBX7 inh	CBX7 inh z-score
O=C(O)c1c2c(nc3ccc(S(=O)(=O)N4CCC(C(=O)NC5CC5)CC4)cc13)CCCCC2	1.01	0.233
c1ccc(C(c2ccccc2)N2CCN(CCCc3c[nH]c4ccccc34)CC2)cc1	0.501	-10.8
Cc1cc(Nc2ccc(OCc3ccccc3)cc2)nc2cccc(O)c12	0.876	-2.44
CCOc1ccc(-c2cn3cc(Cl)ccc3n2)cc1	1.11	1.87
O=C(NCCO)c1ccc(-c2nnc(Nc3ccc(O)cc3)c3ccccc23)cc1	0.989	-0.309
O=C(NCCN1CCCCC1)Nc1cccc(Cl)c1	0.983	-0.627
Brc1ccc2nc(Nc3nc4ccccc4[nH]3)nc(-c3ccccc3)c2c1	0.587	-5.97
CN(C)c1nc(N2CCOCC2)ncc1F	0.992	-0.0747
COc1ccccc1NC(=O)CSc1nc(-c2ccc3c(c2)OCO3)cn1-c1ccc(F)cc1	0.683	-3.2
CCOC(=O)c1cnc2cc(C(F)(F)F)ccc2c1Nc1cccc(Cl)c1	1.22	3.87
CC(C)c1cc(C(=O)Nc2ccc(F)cc2F)no1	0.864	-1.39
Cc1ccc(-c2ccc(=O)n(CCC(=O)NCCN3CCCCC3C)n2)cc1 (centres undefined)	1.02	0.744
CCN1C(=O)c2ccccc2S(=O)c2ccc(C(=O)NC(C)c3ccccc3)cc21 (centres undefined)	1.04	1.12
COc1ccc(C)cc1NC(=O)Cn1nc(Cc2ccncc2)c2ccccc2c1=O	0.999	-0.0184
Cc1ccc(CCNC(=O)C2CCCN(Cc3nc(-c4ccc(Cl)cc4)oc3C)C2)cc1 (centres undefined)	0.987	-0.585
COc1ccc(NC(=O)C2CCN(S(=O)(=O)c3ccc(OC)c(OC)c3)CC2)cc1Cl	1.05	1.49
C=CCc1ccccc1OCC(O)CN1CCC(Cc2ccccc2)CC1 (centres undefined)	1.02	0.301
CCOC(=O)c1cc(-c2ccc(I)cc2)nc2ccccc12	1.15	2.6
Cn1nc(-c2ccc(Cl)cc2)c2cc(C(=O)NCCCN3CCCC3)sc21	1.16	0.662
Cc1ccc2[nH]c(C)c(CCNS(=O)(=O)c3ccc4c(c3)CCN4S(C)(=O)=O)c2c1	0.926	-1.61
N#Cc1nc(COc2ccc(F)cc2)oc1NCC1CCCO1 (centres undefined)	1.06	0.377
CCc1c(-c2ccccc2)nc2ccccc2c1C(=O)NCC1COc2ccccc2O1 (centres undefined)	0.762	-0.941
CCN1CCN(C(=O)c2cc3c(-c4ccc(OC)c(OC)c4)nn(C)c3s2)CC1	1.04	1.21
O=C(NCCc1ccccc1)c1cc(=O)[nH]c2ccc(S(=O)(=O)N3CCOCC3)cc12	1.04	0.413
COc1ccc(N2CCN(CCCNC(=O)C(C)n3ncc4ccccc43)CC2)cc1 (centres undefined)	0.826	-2.72
(more compounds)
SMILES	CBX7 inh	CBX7 inh z-score
O=C(CSc1nc2ncccc2[nH]1)NCCc1ccccc1	1.06	0.7
CCN(C(=O)Cn1nc(Cc2ccncc2)c2ccccc2c1=O)c1ccc(OC)cc1	0.928	-1.49
CCc1ccc(-c2nc(SCC(=O)NCCCOC)c(-c3ccc(F)cc3)[nH]2)cc1	0.889	-1.9
CC(C)OCCCNC(=O)C1CCN(c2nnc(-n3cccc3)s2)CC1	1.13	1.37
Cc1ccc(-c2csc(NC(=O)c3cc4ccccc4oc3=O)n2)cc1	1.09	2.07
Cc1cccc(NC(=O)C(C)N2C(=O)c3ccccc3C2=O)c1 (centres undefined)	1.31	2.64
CC(NC(=O)CCc1nc(-c2cccs2)no1)c1ccc2c(c1)OCCO2 (centres undefined)	1.05	2.04
CCOC(=O)Nc1ccc2c(c1)N(C(=O)CCN(CC)CC)c1ccccc1CC2	0.99	-0.258
CC(=O)N1c2ccc(S(=O)(=O)NCc3ccccc3)cc2CC1C (centres undefined)	0.855	-0.585
COc1cccc(OC)c1C(=O)Nc1ccccc1-c1nc2ccccc2[nH]1	0.955	-0.885
CCCNC(=O)Cn1cnc2sc(C(=O)N(CC)CC)c(C)c2c1=O	1.12	1.59
O=C(NCc1ccc(F)cc1)C1CCCN(S(=O)(=O)c2cccs2)C1 (centres undefined)	1.01	0.187
COc1ccccc1N1CCN(C(=O)c2cccc(C#Cc3ccccc3)c2)CC1	0.738	-3.6
Cc1ccc2c(c1)N(CCC(=O)NCc1ccc3c(c1)OCO3)C(=O)CO2	1.07	0.932
O=[N+]([O-])c1ccc2nc(N3CCOCC3)nc(-c3ccccc3)c2c1	0.852	-0.585
Clc1ccc(-c2nc3cnccn3c2NC2CCCC2)cc1	0.978	-0.275
O=C(c1csc2c1CCCC2)N1CCc2ccccc2C1	1.02	0.713
COc1ccccc1Cc1nc2ccccc2nc1SCC(=O)Nc1ccc(OC)c(OC)c1	1.03	0.481
CCCCOc1ccc(C2C(=O)N(C3CCCCC3)CC(=O)N2CCc2ccc(Cl)cc2)cc1 (centres undefined)	1.08	0.993
c1ccc(-c2cn3c(nc4ccccc43)o2)cc1	1.01	0.201
CCOc1ccc2nc(N3CCCC(C(=O)Nc4cc(C)cc(C)c4)C3)sc2c1 (centres undefined)	0.989	-0.289
O=C(CCCC1=NS(=O)(=O)c2ccccc2N1)NCc1ccccc1	1.31	2.33
O=C(c1ccccc1)c1cn(Cc2cccc(F)c2)c2cc3c(cc2c1=O)OCCO3	0.712	-1.02
COc1cccc(CN2C(=O)CCC2(C)C(=O)NC2CCC(C)CC2)c1 (centres undefined)	1.06	1.09
O=C(NCCN=C1NS(=O)(=O)c2ccccc21)c1cccc(Br)c1	0.962	-0.97
Continued:
SMILES	CBX7 inh	CBX7 inh z-score
Clc1ccc(COc2ccccc2CNCc2cccnc2)cc1	0.727	-2.97
CC1(C(=O)NC2CCCCCCC2)CCC(=O)N1CCc1ccccc1 (centres undefined)	1.08	0.652
Cn1c(-c2nonc2NC(=O)c2cccs2)nc2ccccc21	0.865	-1.6
O=C(Nc1cccc(C(F)(F)F)c1)c1cc2nc(-c3cccs3)cc(C(F)(F)F)n2n1	1.02	1.02
O=C(O)CCCCCNc1ncnc2ccccc12	0.82	-1.96
COCCn1c(SCC(=O)Nc2ccc(C)cc2C)nnc1-c1c[nH]c2ccccc12	1.01	0.0881
Cc1nc2ccc(S(=O)(=O)NC(CC(C)C)C(=O)NC3CCCC(C)C3C)cc2s1 (centres undefined)	0.969	-0.583
CCOc1ccc(-c2cc(C(=O)N3CC(C)CC(C)C3)c3ccccc3n2)cc1 (centres undefined)	0.902	-1.84
Cc1ccc(-c2nn(CCC(=O)Nc3ccc(Cl)cc3)c(=O)c3ccccc23)cc1	1.05	1.41
CCOCCCNC(=O)CCn1nc(-c2ccc(Cl)cc2)ccc1=O	1.12	2.17
COc1cc(OC)cc(C(=O)N(Cc2nc(-c3ccc(Cl)cc3)no2)C(C)C)c1	0.885	-1.15
Cc1cccc(-n2c(Cc3cc(=O)[nH]c(=O)[nH]3)nnc2SCC(=O)Nc2nc(C)cs2)c1	1.01	0.35
O=C(CC1Oc2ccccc2NC1=O)NCc1ccccn1 (centres undefined)	0.894	-2.05
CCc1ccc(C(=O)CC2(O)C(=O)N(Cc3ccccc3C)c3ccccc32)cc1 (centres undefined)	0.454*	-6.91*
Cc1nc2c(-c3ccc(F)cc3)c(C)nn2c(C)c1CCC(=O)N1CCC(Cc2ccccc2)CC1	1.02	0.526
CC(=O)N1CCC(N(CCCOC(C)C)C(=O)Nc2ccc(Cl)cc2)CC1	1.12	0.122
CSCC[C@@H](C(=O)Nc1cc(F)ccc1F)N1Cc2ccccc2C1=O	0.851	-0.416
Cc1cc(-c2csc(Nc3ccccc3C)n2)ccc1F	0.858	-2.74
Cc1cc(NC(=O)c2cc(-c3ccc(Br)cc3)on2)no1	0.943	-1.24
COc1ccccc1-c1cc(C(=O)Nc2c(C)nn(Cc3ccccc3Cl)c2C)no1	0.94	-1.61
CC(c1cccnc1)N(C(=O)Nc1ccc(Cl)cc1)C1CCCCC1 (centres undefined)	1.03	1.55
CC(C)Cn1c(C(C)NC(=O)Cc2ccccc2)nc2ccccc21 (centres undefined)	1.05	1.74
CCc1cccc(NC(=O)Cn2nc(-c3ccc(OC)cc3)ccc2=O)c1	0.907	-2.6
Cc1cc2c(cc1C)NC(CC(=O)Nc1ccc(Cl)cc1)C(=O)N2 (centres undefined)	0.883	-0.268
COc1ccc(CNC(=O)C2CCN(S(=O)(=O)c3ccccc3)CC2)cc1	0.901	-1.83
Continued.
SMILES	CBX7 inh	CBX7 inh z-score
Cc1ccccc1-c1nc(CN2CCC(C(=O)NCCCN3CC(C)CC(C)C3)CC2)c(C)o1 (centres undefined)	2.22	10.3
CN1C(=O)C(O)(CC(=O)c2cccc(N3C(=O)C4CCCCC4C3=O)c2)c2ccccc21 (centres undefined)	1.01	0.0745
O=C(CSc1nc2ccccc2nc1Cc1ccc(F)cc1)NCc1ccccc1	1.04	0.155
Cc1ccc(-c2noc(CCC(=O)Nc3ccccc3C)n2)cc1	1.02	0.495
CC1CC(=O)Nc2ccccc2N1C(=O)c1ccccc1Cl (centres undefined)	0.864	-2.53
Cc1ccc(-c2cc(C(F)(F)F)n3ncc(C(=O)NC(C)(C)C)c3n2)cc1	0.853	-1.89
c1ccc(CN2CCN(CCCNc3ccc4nncn4n3)CC2)cc1	1.02	0.439
Cc1cc(Nc2cc(Cl)ccc2C)n2nc(C)nc2n1	1.11	2.33
FC(F)(F)c1nc2ccccc2nc1N1CCC(Cc2ccccc2)CC1	1.35	10.5
O=C(Cn1c(=O)[nH]c2ccccc2c1=O)NCc1ccccc1Cl	1	0.0836
COc1ccc(Cc2nnc(SCC(=O)Nc3ccc(C)cc3C)o2)cc1	1	-0.004

Screening data: PubChem, several laboratories

A portion of the library; count on the stated rates, not on these rows.
